RGS16-Gao = modulators of RGS16 binding to Galphao, primary screen, biochemical, human proteins, multiplexed bead flow cytometry; 0.38% of 220,000 active; Regulator of G-protein signaling 16 (Homo sapiens) + Guanine nucleotide-binding protein …; binding response (% of control), % at 10 µM; bead-based flow cytometry RGS16-Galphao binding, fluorescence; actives lie on both sides;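 active = below 25% or above 175%, edge rows of some plates excepted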;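 also: Galphao activated by GDP with aluminum fluoride before binding; 100% = wells without compound and 0% = beads without RGS; some results beyond the cut were filed as inactive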
Insulin prom inh = inhibitors of insulin promoter-driven GFP, primary screen, imaging, TRM-6 cells (human fetal islet line), eGFP reporter, cell count | reporter expression induced with tamoxifen | inhibition, % at 2 µM | 0.9% of 130,000 active | AID 1273, 2008;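 active = inhibition above the mean plus 3 SD, with well images judged a real hit on visual review, cut at about 60% in these data, passing the limit was not always enough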
GALR2 ag = GALR2 receptor agonists, primary screen, cell-based; Galanin receptor type 2 (Homo sapiens), O43603; GALR2-expressing cells, agonist activation read-out; activation, %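 (tested at 5 µM)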; 0.48% of 140,000 active;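 active = above mean plus 3 SD of all compounds, about 5% in these data, not always enough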;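 also: 0% = vehicle buffer wells and 100% = reference agonist at full effect; tested in CHO reporter cells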
PKD1 kinase inh = inhibitors of human PKD1 kinase, biochemical, fluorescence polarization; Serine/threonine-protein kinase D1 (Homo sapiens), Q15139; PKD1 kinase fluorescence polarization assay; inhibition, %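 (about 10 µM by stock and volumes)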; 0.056% of 200,000 active;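 active = inhibition of 50% or more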;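 also: controls were vehicle for no effect and a reference inhibitor for full effect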
Target sequence (Q15139 whole entry, looked up): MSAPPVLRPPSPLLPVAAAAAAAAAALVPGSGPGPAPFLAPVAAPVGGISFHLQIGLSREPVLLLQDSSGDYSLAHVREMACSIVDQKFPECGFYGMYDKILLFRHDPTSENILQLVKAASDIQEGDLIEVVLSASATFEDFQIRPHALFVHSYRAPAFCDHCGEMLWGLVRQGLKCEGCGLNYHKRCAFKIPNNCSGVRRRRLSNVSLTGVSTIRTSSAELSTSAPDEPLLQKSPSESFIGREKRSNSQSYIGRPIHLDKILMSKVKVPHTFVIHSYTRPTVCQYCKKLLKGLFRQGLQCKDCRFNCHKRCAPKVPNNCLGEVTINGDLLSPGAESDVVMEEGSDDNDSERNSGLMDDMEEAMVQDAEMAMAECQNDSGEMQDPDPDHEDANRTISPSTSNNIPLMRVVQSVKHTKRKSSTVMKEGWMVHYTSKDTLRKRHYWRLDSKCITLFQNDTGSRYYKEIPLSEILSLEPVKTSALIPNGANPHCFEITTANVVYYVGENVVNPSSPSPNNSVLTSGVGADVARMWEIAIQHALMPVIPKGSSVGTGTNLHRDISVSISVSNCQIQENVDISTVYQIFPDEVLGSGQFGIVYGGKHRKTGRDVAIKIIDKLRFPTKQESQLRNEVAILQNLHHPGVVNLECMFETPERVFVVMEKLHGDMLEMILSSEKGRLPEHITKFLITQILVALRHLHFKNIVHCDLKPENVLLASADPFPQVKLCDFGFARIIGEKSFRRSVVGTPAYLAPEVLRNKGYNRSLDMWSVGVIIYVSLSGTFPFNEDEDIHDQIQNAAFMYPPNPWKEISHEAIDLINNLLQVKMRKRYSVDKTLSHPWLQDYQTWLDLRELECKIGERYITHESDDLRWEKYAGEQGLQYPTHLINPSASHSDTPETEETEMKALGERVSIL
HSV augment = enhancers of HSV replication in host cells, fold increase, host cell viability; HSV replication augmentation in cells; maximum fold increase; 0.005% of 220,000 active;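 active = peak rise of 1.5-fold or more in the series; tested in PC3 cells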;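 also: first round at 10 µM; read as green reporter fluorescence; hits show the peak of a series up to 25 µM; 1 = signal of infected wells without compound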
Insulin prom inh cell count = also measured in Insulin prom inh; calls as there; normalized cell count, %; measured here: cell count, toxicity; reference of the scale not given here;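 cells exposed to compound for 48 h; stained nuclei by imaging scaled within each plate; lower means fewer cells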
HSV augment primary fold = second read-out of HSV augment, no call of its own (marks repeat the call); fold increase; compound at 10 µM; measured here: primary screen fold increase 10 uM; tested in PC3 cells;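 GFP signal in the first replicate; 1 = infected wells without compound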
The depositor's hits bear a star; i = inactive; x = no result given.

Sample of the layout, 2 compounds:
SMILES	RGS16-Gao	Insulin prom inh	Insulin prom inh cell count	GALR2 ag	PKD1 kinase inh	HSV augment	HSV augment primary fold
CCC(=O)Nc1sc2c(c1C#N)CC(C)(CC)OC2 (stereo not drawn)	107	-9	78	-0.7	-2	i	0.95
CC(C)(C)C(=O)Nc1nc(NC(=O)C(C)(C)C)nc(-c2ccccc2Cl)n1	98	x	x	x	x	i	1

This part in full, repeating the preview:
SMILES	RGS16-Gao	Insulin prom inh	Insulin prom inh cell count	GALR2 ag	PKD1 kinase inh	HSV augment	HSV augment primary fold
CCC(=O)Nc1sc2c(c1C#N)CC(C)(CC)OC2 (stereo not drawn)	107	-9	78	-0.7	-2	i	0.95
CC(C)(C)C(=O)Nc1nc(NC(=O)C(C)(C)C)nc(-c2ccccc2Cl)n1	98	x	x	x	x	i	1
CC1(C)Cc2ccccc2C(NNC(=O)c2ccccn2)=N1	103	0	108	-0.8	-6	i	0.99
COc1ccc(-n2cnc3c(sc4nc(N5CCOCC5)c5c(c43)CCCC5)c2=O)cc1	103	x	x	x	-5	i	1.1
NS(=O)(=O)c1ccc(CNC(=O)c2scc3c2CCCC3)cc1	96	x	x	x	5	i	0.96
COc1ccc(CSCCNC(=S)Nc2ccccc2)cc1Cl	104	x	x	x	2	i	0.93
CCCCOC(=O)c1ccc(NC(C)=O)cc1	91	x	x	2.3	-3	i	1
Cc1cc(C(=O)CSc2nnc(N)s2)c(C)n1Cc1cccs1	98	x	x	-1.2	-6	i	1.1
O=C1CCCC2=C1C(c1ccc(Cl)cc1)C1C(=O)c3ccccc3C1=N2 (stereo not drawn)	102	43	105	1.1	-11	i	0.84
O=c1cc(CN2CCN(S(=O)(=O)c3ccccc3)CC2)nc2sccn12	100	10	81	x	6	i	0.9
O=C1C(c2ccccc2)SC(=Nc2ccccc2)N1S(=O)(=O)c1ccccc1 (stereo not drawn)	62	24	111	-0.5	-5	i	0.9
COC(=O)c1c(NC(=O)CC2SC(N)=NC2=O)sc(C)c1C (stereo not drawn)	119	x	x	x	6	i	0.79
CCOc1ccc(-c2n[nH]c(C)c2-c2ccccc2OC)c(O)c1	104	-8	53	-0.5	0	i	0.97
Cc1noc2ncnc(N3CCCC3)c12	102	x	x	x	-9	i	0.91
Cc1coc2cc3oc(=O)c4c(c3cc12)CCC4	103	16	105	-1.4	-13	x	x
Cc1cc(=O)n2[nH]c(N)c(N=Nc3ccccc3F)c2n1	106	-7	117	-0.1	5	i	0.99
CC1Cc2ccccc2N1C(=O)CCn1c(=O)sc2ccccc21 (stereo not drawn)	100	x	x	x	x	i	1
O=C(NCCCN1CCN(c2ccccc2F)CC1)C1CCCN(S(=O)(=O)c2cnc[nH]2)C1 (stereo not drawn)	105	x	x	-2.5	8	x	x
CN(C)C(=O)CSc1nc2ccccc2n1Cc1ccccc1	109	-40	71	-1.1	-14	i	0.98
c1ccc(-c2cc(-c3ccccc3)on2)cc1	103	x	x	x	x	i	0.98
CC(C)CC(=O)N1CCN(S(=O)(=O)c2ccc(Cl)cc2)CC1	82	13	84	x	-5	i	1.1
CCN(CC)C(=O)CN1C(=O)NC2(CCc3ccccc3C2)C1=O (stereo not drawn)	97	x	x	x	-2	i	0.98
CCOC(=O)C(NC(=O)c1ccccc1)=C(C)C	103	-6	48	11	0	i	0.89
Cc1ccccc1-c1ccc(/C=C2/SC(N3CCOCC3)=NC2=O)o1	100	x	x	x	x	i	0.81
COc1cc(NC(=O)c2ccccc2F)ccc1NC(=O)c1ccccc1Cl	99	x	x	x	-1	i	0.97
Cn1nccc1C(=O)OCC(=O)Nc1nc(-c2ccccc2)cs1	99	x	x	-1.2	-1	i	1
O=C(c1ccncc1)N1CCN(C2CCCCC2)CC1	103	x	x	x	1	i	1
Cn1c(NC(=O)C[n+]2cc(-c3ccccc3)n3c2CCC3)cc(=O)n(C)c1=O	116	x	x	-0.7	5	i	1.2
COc1ccc(-c2nnn(CC(=O)N(Cc3ccccc3Cl)C(C(=O)NCC3CCCO3)c3ccco3)n2)cc1OC (stereo not drawn)	96	58	95	0.4	-10	i	1.2
CCOC(=O)c1[nH]c2ccc(OCC)cc2c1NC(=O)CN1CCCC(C)C1 (stereo not drawn)	103	50	123	-2.1	-15	i	0.85
COc1ccc(Cc2nc(-c3ccc(NC(=O)c4cccnc4)cc3)no2)cc1	40	-115	111	-2.1	1	i	0.64
O=C1C2CC=CCC2C(=O)N1c1n[nH]c(Cc2ccccc2)n1 (stereo not drawn)	98	-350	56	-1.8	-10	i	0.94
CCOC(=O)/C=C1\CC(=O)Nc2nonc2N1	98	61	83	-1.0	-12	i	1.2
CC(C)(C)c1csc(NC(=O)c2cccs2)n1	102	62	93	4.0	-7	i	0.77
O=C(Nc1ccc2oc(=O)ccc2c1)c1cccnc1Cl	98	31	103	-4.7	-7	i	0.95
O=C(Nc1ccc(N2CCOCC2)nc1N1CCOCC1)c1cccc(C(F)(F)F)c1	107	x	x	x	x	i	0.99
Cn1cccc1C(C#N)c1ncc(C(F)(F)F)cc1Cl (stereo not drawn)	99	x	x	x	-1	i	0.97
Cc1ccc(-c2nc(C#N)c(N3CCCCC3)o2)cc1	107	x	x	-4.7	-2	i	0.91
COc1cc(C(C(=O)NC2CCCCC2)N(Cc2ccco2)C(=O)c2cnccn2)cc(OC)c1OC (stereo not drawn)	105	x	x	x	-4	i	0.93
Cc1nc(Nc2ccc(F)cc2)nc(Nc2ccc(F)cc2)c1[N+](=O)[O-]	102	x	x	x	x	i	1.1
CCCCN(C)C(=O)Cn1cnc2sc(C)cc2c1=O	114	x	x	2.2	-5	i	0.69
Cn1c(=O)c2c(=O)cc(N)[nH]c2n(C)c1=O	100	x	x	x	x	i	1.1
COc1ccc(C(=O)NCCN2CCOCC2)cc1OC	106	x	x	-0.7	-9	i	1
CCSc1cc(N2CCCC2)nc(-c2ccccc2Cl)n1	104	-40	98	-0.5	-4	i	1.1
CCOC(=O)C(=CNc1ccc(C(F)(F)F)cc1Cl)C(=O)OCC	100	x	x	x	x	i	1.1
COc1ccc(NC(=S)Nc2cccc(Cl)c2)cc1OC	98	-50	118	x	0	i	1
COc1cc2c(cc1NC(=O)CSc1ccccc1)oc1ccccc12	97	-20	54	-1.3	-1	i	0.96
CC(C)CNS(=O)(=O)c1ccc(CCC(=O)N2CCN(Cc3ccc4c(c3)OCO4)CC2)cc1	102	-469	70	-1.5	-5	i	1
CN(C)c1cc[n+](CC(=O)c2ccc(-c3ccccc3)cc2)cc1	100	-18	38	x	1	i	0.74
O=C(CSc1nnc(-c2ccc(Cl)s2)o1)N1CCc2ccccc21	x	30	76	-1.0	-2	i	0.81
CCCCOc1ccc(C(=O)OCC(=O)Nc2cc(C)on2)cc1	98	x	x	x	11	i	0.89
CC(C)CC(=O)c1c[nH]c(C(=O)O)c1	98	x	x	x	-9	i	1.1
O=c1[nH]c(CN2CCN(c3ccc(O)cc3)CC2)nc2scc(-c3ccc(Cl)cc3)c12	100	-70	97	x	-7	i	0.66
CCCC(=O)Nc1nnc(-c2ccccc2)o1	61	x	x	x	-5	x	x
NNC(=O)c1ccc(COc2ccc3ccccc3c2)cc1	93	x	x	x	x	i	0.91
COc1ccc(S(=O)(=O)N2CCCC(C(F)(F)F)C2)cc1 (stereo not drawn)	109	-45	104	x	-1	i	1
CN1CCN(c2c(F)cc3c(=O)c(C(=O)O)cn4c3c2OCN4C)CC1	100	x	x	x	x	i	0.97
O=C(NNS(=O)(=O)c1ccc(Cl)cc1)c1sccc1-n1cccc1	100	-4	80	-1.1	2	i	0.97
CCOc1ccc(-n2c(SCC(=O)Nc3ccc4c(c3)OCCO4)nc3c(c2=O)SCC3)cc1	104	x	x	-0.7	-10	i	0.98
O=C(c1cnccn1)N(Cc1cccs1)C1(C(=O)NC2CCCC2)CCCCC1	52	-81	89	-0.8	-5	i	0.95
Going on with the list.
SMILES	RGS16-Gao	Insulin prom inh	Insulin prom inh cell count	GALR2 ag	PKD1 kinase inh	HSV augment	HSV augment primary fold
COC(=O)c1ccc(COC(=O)CCC(=O)c2cccs2)cc1	108	0	27	-1.4	-14	i	0.97
CC(C)(CNC(=O)/C=C/c1ccc(F)cc1)CNC(=O)/C=C/c1ccc(F)cc1	100	x	x	-1.5	-7	i	0.9
Cc1cc(C(=O)N/N=C/c2ccc(OC(=O)c3ccccc3Br)cc2)n[nH]1	104	x	x	x	-1	i	0.96
COc1ccc(CC(=O)n2[nH]c(=O)ccc2=O)cc1OC	101	x	x	x	x	i	0.93
O=C(Nc1ccc(Cl)c(Cl)c1)Nc1ccccc1O	16*	x	x	x	x	i	1.2
O=C(CC1N=C(Cc2ccccc2)NNC1=O)N/N=C/c1ccc([N+](=O)[O-])cc1 (stereo not drawn)	107	x	x	x	-4	i	1
O=C(NCC(=O)N(CCc1ccccc1)C(C(=O)NC1CCCC1)c1cccnc1)c1ccco1 (stereo not drawn)	101	-3	97	-0.7	-13	x	x
COc1ccccc1Cc1nnnn1CC(=O)O	97	24	43	-2.0	-9	i	1.2
O=C(Nc1cccc(N2C(=O)C3C4C=CC(C4)C3C2=O)c1)c1cccs1 (stereo not drawn)	101	x	x	x	-2	i	0.94
O=C(C[n+]1ccc(/C=N/O)cc1)N(Cc1ccccc1)Cc1ccccc1	102	-59	101	x	-5	i	1
Cc1csc(SCC(=O)c2c(N)n(C)c(=O)n(C)c2=O)n1	102	9	97	-1.7	-3	x	x
CCOC(=O)c1cc(CC)sc1NC(=O)Cc1ccccc1	105	7	159	-0.3	-2	i	1
COc1ccc(C)cc1NC(=O)N1CCC(CO)(CC2CCCCO2)CC1 (stereo not drawn)	108	x	x	x	0	i	1
CC1=CC2=NC(=O)/C(=C/c3cccn3Cc3ccccc3)C(=N)N2O1	103	x	x	x	x	i	0.96
O=C(O)C1CC1C(=O)N1CCN(c2ccc(Cl)c(Cl)c2)CC1 (stereo not drawn)	103	-242	76	-3.0	2	i	0.94
Cc1ccc(S(=O)(=O)Nc2cc3c(C(=O)Nc4ccccc4)c(C)oc3c3ccccc23)cc1	97	x	x	-0.3	-6	i	1.5
C#CCOCCOCCOCCNc1nc(N2CCN(C(=O)[C@H]([C@@H](C)CC)n3cc([C@@H](N)CO)nn3)CC2)nc(N2CCN(C(=O)[C@H](CCCCN)n3cc([C@@H](N)C(C)CC)nn3)CC2)n1 (stereo partly drawn)	94	x	x	x	-2	i	0.85
O=C(Nc1ccc(F)cc1F)c1cc2ncc(Br)cn2n1	101	31	147	-2.4	-4	i	1.1
CCN(CC)CCCNC(=O)C(C)n1c2ccccc2c2nc(=O)cc(C)n21 (stereo not drawn)	98	x	x	x	x	i	0.97
CC(C)CNC(=O)COC(=O)/C=C/c1ccco1	105	16	108	-0.2	-10	i	1.1
Cc1ccc(CNC(=S)Nc2cc(C(=O)O)ccc2C)cc1	94	x	x	x	-4	i	0.96
CCn1c(O)c(N=Nc2ccc(Cl)c(C(=O)O)c2)c2ccccc21	102	x	x	x	x	i	1
CC(C)CC(=O)NC(=S)NNC(=O)c1ccc([N+](=O)[O-])cc1	114	x	x	-2.0	-6	i	0.83
CSc1nnc(C)c(=O)n1COC(=O)c1ccc(S(=O)(=O)N2CCCC2)cc1	98	x	x	-0.1	0	i	1.1

One compound at a time (already shown):
`CC(C)CNC(=O)COC(=O)/C=C/c1ccco1` reads RGS16-Gao = 105; Insulin prom inh = 16; Insulin prom inh cell count = 108; GALR2 ag = -0.2; PKD1 kinase inh = -10; HSV augment = i; HSV augment primary fold = 1.1
`CSc1nnc(C)c(=O)n1COC(=O)c1ccc(S(=O)(=O)N2CCCC2)cc1` reads RGS16-Gao = 98; Insulin prom inh = x; Insulin prom inh cell count = x; GALR2 ag = -0.1; PKD1 kinase inh = 0; HSV augment = i; HSV augment primary fold = 1.1
`O=C(O)C1CC1C(=O)N1CCN(c2ccc(Cl)c(Cl)c2)CC1` (stereo not drawn) reads RGS16-Gao = 103; Insulin prom inh = -242; Insulin prom inh cell count = 76; GALR2 ag = -3.0; PKD1 kinase inh = 2; HSV augment = i; HSV augment primary fold = 0.94

Remaining list, next part
SMILES	RGS16-Gao	Insulin prom inh	Insulin prom inh cell count	GALR2 ag	PKD1 kinase inh	HSV augment	HSV augment primary fold
c1ccc(-c2ccc(CN3CCN(c4ncccn4)CC3)cc2)cc1	97	x	x	-1.7	5	i	0.88
O=C(CCc1ccccc1)Nc1nc2nc(-c3ccccc3)cc(=O)n2[nH]1	79	39	130	-1.3	-2	i	0.98
CCNS(=O)(=O)c1ccc2nc(NC(=O)/C=C/c3cc(OC)c(OC)c(OC)c3)sc2c1	103	x	x	1.9	11	i	0.78
COc1ccccc1N1CCN(C(=O)c2sc3nc(-c4ccccc4)cn3c2C)CC1	91	-344	62	-1.4	-9	i	0.74
